# Screening results as filed in PubChem.
# Tgondii IFNg – T. gondii growth inhibition under IFN-gamma | AID 1259416 | Toxoplasma gondii growth in IFN-gamma-treated host cells; active compounds read low; reference of the scale not given here | activity change, negative = inhibition, %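 (about 20 µM by stock and volumes)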 | hit rate 3.8% among 69,000;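 active = below -70%; inconclusive = fit judged invalid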;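 note: host cells are HeLa cells infected with Toxoplasma gondii; parasite growth read as luciferase light; one replicate is shown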
# * marks the source's active call; other numbers are inactive results; i = inactive; ? = inconclusive; & = joins results of further samples.
smiles | Tgondii IFNg
CCOc1ccc(-c2noc(-c3c(O)c4cc(C)ccc4[nH]c3=O)n2)cc1 | 131.1
COc1ccccc1C(=O)Nc1ccc(-c2nc(-c3cc(C)ccc3C)co2)cc1 | -50.6
CN(Cc1cnc2ccccc2c1)C(=O)CCCS(N)(=O)=O | 4.3
O=S(=O)(c1ccc(Cl)cc1)N1CCSCC1 | 63.6
CC(C)n1c2ccccc2c2c1cc(C(=O)N1CCCCO1)n2C | -29.1
CC(=O)N1CCCCC1C1=CCCN(CCOc2ccc(F)cc2)C1 (stereo not drawn) | 3.9
Cc1cnc(CNC(=O)CC23CC4CC(CC(C4)C2)C3)cn1 | 0.5
CN(Cc1ccccc1)C1CCN(C(=O)c2cscn2)C(C(=O)O)C1 (stereo not drawn) | -48.1
Cc1ccc(N2CC[C@@H](NS(C)(=O)=O)[C@@H]2Cc2ccccc2)nn1 | -12.4
CSc1ncc(OCc2ccccc2)c(=O)[nH]1 | -25.8
S=c1n(CN2CCCCC2)cnn1CN1CCCCC1 | 4.6
CCc1ccc(-c2noc(-c3c(O)c4ccc(F)cc4n(CC)c3=O)n2)cc1 | -17.8

# An excerpt from above in order of length of the SMILES, highest first:
smiles | Tgondii IFNg
Cc1ccc(N2CC[C@@H](NS(C)(=O)=O)[C@@H]2Cc2ccccc2)nn1 | -12.4
CCc1ccc(-c2noc(-c3c(O)c4ccc(F)cc4n(CC)c3=O)n2)cc1 | -17.8
CN(Cc1ccccc1)C1CCN(C(=O)c2cscn2)C(C(=O)O)C1 (stereo not drawn) | -48.1
CC(=O)N1CCCCC1C1=CCCN(CCOc2ccc(F)cc2)C1 (stereo not drawn) | 3.9
CN(Cc1cnc2ccccc2c1)C(=O)CCCS(N)(=O)=O | 4.3
S=c1n(CN2CCCCC2)cnn1CN1CCCCC1 | 4.6

# Individual results from the entries so far:
# In Tgondii IFNg, CCOc1ccc(-c2noc(-c3c(O)c4cc(C)ccc4[nH]c3=O)n2)cc1 is entered as 131.1
# In Tgondii IFNg, S=c1n(CN2CCCCC2)cnn1CN1CCCCC1 is entered as 4.6
# In Tgondii IFNg, CSc1ncc(OCc2ccccc2)c(=O)[nH]1 is entered as -25.8

# By substructure, the entries above containing a carbonyl joined to an NH by a bond outside any ring (2)
smiles | Tgondii IFNg
COc1ccccc1C(=O)Nc1ccc(-c2nc(-c3cc(C)ccc3C)co2)cc1 | -50.6
Cc1cnc(CNC(=O)CC23CC4CC(CC(C4)C2)C3)cn1 | 0.5

# Later entries.
smiles | Tgondii IFNg
Cc1cccc(NC(=O)N2CCN(Cc3nc(-c4cccc(Cl)c4)oc3C)CC2)c1 | -1.6
COc1ccc2c3c(n(C)c2c1)[C@H](CO)N(C(=O)CN(C)C)CC31CCN(S(C)(=O)=O)CC1 | 16.2
CC(=O)N1CCn2c3c(c4cc(C)ccc42)CCCC31 (stereo not drawn) | 26.2
CSc1ccc(NC(=O)NCc2cccnc2)cc1 | 136.5
CC1CCN(Cc2ccc(C(=O)N3CCOC(C(F)(F)F)C3)o2)CC1 (stereo not drawn) | -3.4
CN1C(=O)c2cc(NC(=O)c3ccc4c(c3)OCO4)ccc2OC[C@H]2O[C@H](CC(=O)O)CC[C@H]21 | 4.5
CCOCC1CN(C(=O)COc2ccccc2)Cc2nnn(C)c21 (stereo not drawn) | 16.7
CC(C)(C)C1=NN2C(=N)CC(=O)N=C2S1 | 20.1
O=C(NCc1ccccc1)Nc1ccc(-c2nc(-c3cccc(Br)c3)co2)cc1 | -29.5
CC(C)C#Cc1ccc([C@H]2[C@@H](CO)N(C(=O)c3cccc(F)c3)[C@H]2C#N)cc1 | -29.9
CC(=O)c1ccc(C#Cc2ccccc2)cc1 | 301.4
Cc1c(C(=O)N2CCC(c3ncc4c(n3)CCN(C)C4)C2)[nH]c2ccc(F)cc12 (stereo not drawn) | 75.0

# Molecules above containing an aryl thioether with sulfur outside any ring:
smiles | Tgondii IFNg
CSc1ncc(OCc2ccccc2)c(=O)[nH]1 | -25.8
CSc1ccc(NC(=O)NCc2cccnc2)cc1 | 136.5

# (further entries)
smiles | Tgondii IFNg
CC(Cc1ccccn1)NC(=O)CCN1C(=O)c2ccccc2S1(=O)=O (stereo not drawn) | 86.1
CN(C)C(=O)c1cncc(-c2cc(O)cc(CCC3CCCCN3)c2)n1 (stereo not drawn) | 4.0
O=C(OCCCN1CCOCC1)c1ccc(O)cc1O | -4.6
c1coc(CN2Cc3ccccc3C3(CCN(c4cnccn4)CC3)C2)c1 | 4.7
CN(C[C@@H]1N[C@H](CO)[C@@H]1c1ccc(-c2cccc(F)c2)cc1)C(=O)CC1CC1 | -47.6
COc1ccc2c(c1)NC1(CCN(C(=O)Nc3cccc(C(F)(F)F)c3)CC1)c1cccn1-2 | -66.9
O=C(O)[C@H]1[C@H](CO)[C@H]2Cn3c(ccc(-c4ccccc4F)c3=O)[C@H]2N1Cc1ccccc1 | -11.0
Cc1ccsc1CN1C[C@H]2COC[C@@]2(CNC(=O)c2cccnc2)C1 | -9.8
O=C(CN1C(=O)CCc2cc(S(=O)(=O)N3CCCCC3)ccc21)N1CCc2ccccc2C1 | -14.9
CC(=O)N1CCC2(CC1)CCn1c(-c3ccc(C(N)=O)cc3)cnc12 | -53.6
O=C1c2ccccc2C2(O)Nc3[nH]c(=O)[nH]c(=O)c3C12O (stereo not drawn) | -37.7
CCOc1cc(C(=O)N2CCC3(CC2)Nc2ccccc2-n2cccc23)cc(OCC)c1OCC | -34.8

> CCCCN(C)C(=O)c1cc2cccnc2n(Cc2ccccc2F)c1=O
  Tgondii IFNg: 22.9

> O=C(CN1CCC(Oc2cnccn2)CC1)Nc1ccc(N2CCCCCC2)cc1
  Tgondii IFNg: 10.2

> Cc1oc(-c2cccc(C(F)(F)F)c2)nc1CN(C)Cc1cnccn1
  Tgondii IFNg: 8.0

> CC(C)(NC(=O)c1cccs1)C(=O)NC1(c2ccccc2Cl)CC1
  Tgondii IFNg: -14.4

> CCOC(=O)C1(CC2CC2)CCN(C(C)CCc2c[nH]c3ccccc23)CC1 (stereo not drawn)
  Tgondii IFNg: -3.6

> COc1ccc(C(=O)NCCC2=CCCCC2)cc1[N+](=O)[O-]
  Tgondii IFNg: 21.1

> C[C@H]1CN([C@@H](C)CO)C(=O)CCCn2cc(nn2)CO[C@@H]1CN(C)C(=O)Nc1cccc(C(F)(F)F)c1
  Tgondii IFNg: -3.2

> COc1ccc(-c2oc3cc(OC)ccc3c2C(=O)c2ccc(C#N)cc2)cc1
  Tgondii IFNg: -51.5&-28.0

> CC1=NOC(C(=O)N2CCC(c3n[nH]c(=O)n3Cc3ccccc3)CC2)C1 (stereo not drawn)
  Tgondii IFNg: 4.8

> Cc1ncc(-c2ccccn2)c(C2CCC(CNC(=O)Cc3sc(C)nc3C)CC2)n1 (stereo not drawn)
  Tgondii IFNg: 37.8

> Cc1ccc(S(=O)(=O)N(C)C[C@H]2OCCCC[C@H](C)Oc3ccc(NC(=O)c4ccncc4)cc3C(=O)N([C@H](C)CO)C[C@@H]2C)cc1
  Tgondii IFNg: -8.4

> COCC(=O)Nc1ccc2c(c1)C(=O)N(C)[C@H]1CC[C@@H](CC(=O)NC3Cc4ccccc4C3)O[C@H]1CO2
  Tgondii IFNg: 10.7

> CC(C)c1cc(C(=O)NC(C)c2ccccc2-n2cccn2)n(C)n1 (stereo not drawn)
  Tgondii IFNg: -14.9

> Cc1cncc(C(=O)N2CCOCC3(CCC(Cn4cncn4)O3)C2)c1 (stereo not drawn)
  Tgondii IFNg: 0.4

> CC(C)N(C(=O)Cc1ccccc1[N+](=O)[O-])C(C)C
  Tgondii IFNg: 15.5

> CCc1cccc(NC(=O)CCC(=O)N2CCN(c3cccc(C)n3)CC2)c1
  Tgondii IFNg: -8.5

> COc1ccc(-c2nc(Cn3ccn4nc(-c5ccccc5OC)cc4c3=O)c(C)o2)cc1
  Tgondii IFNg: i

> COc1cc2c(cc1CN1CCN(Cc3cccc(F)c3)CC1)OCCO2
  Tgondii IFNg: -4.4

> Cc1ccc(CNCC2(O)CCCN(CCc3ccccc3)C2=O)s1 (stereo not drawn)
  Tgondii IFNg: -4.8

> CCN1c2cc(C)ccc2-n2cccc2C12CCN(C(=O)Nc1cc(OC)c(OC)c(OC)c1)CC2
  Tgondii IFNg: -27.0

> O=C1NC2(CCCCC2)C(=O)N1c1ccc(Cl)cc1
  Tgondii IFNg: 3.6

> COc1ccccc1OCC(O)CN1CCN(CC(=O)Nc2c(C)cccc2C)CC1 (stereo not drawn)
  Tgondii IFNg: 9.7&3.4

> COC(=O)c1sc(SC)c(C(C)=O)c1C
  Tgondii IFNg: 16.4

> CCOC(=O)[C@H](C)NC(=O)C1(c2ccccc2F)CC1
  Tgondii IFNg: 1.3

> COCC(=O)N1CC2(C1)[C@@H](c1ccccc1)[C@@H](CO)N2C(=O)NC1CCCC1
  Tgondii IFNg: -57.0

> CCCc1nc(N[C@H]2CCCCNC2=O)c2cnn(C)c2n1
  Tgondii IFNg: -40.8

> CN1Cc2ccccc2C2(CCN(Cc3cnn(C)c3)CC2)C1
  Tgondii IFNg: 5.0

> Cc1cccc(-c2ccc([C@H]3[C@@H](CO)N4C(=O)CN(C(=O)c5ccc6c(c5)OCO6)C[C@@H]34)cc2)c1
  Tgondii IFNg: -26.7

> COc1ccc(OC)c(CC(=O)N2CCC(c3ccccc3C(=O)O)C2)c1 (stereo not drawn)
  Tgondii IFNg: 30.7

> Cn1ccnc1CN1CCC2(CC1)CN(Cc1cccnc1)CCO2
  Tgondii IFNg: 4.2

> CCc1ccccc1NC(=O)Cn1c(=O)ccc2cc(S(=O)(=O)N3CCCC3)ccc21
  Tgondii IFNg: 67.5

> CO[C@H]1CCN(C(=O)CN(C)C)[C@@H]2CCO[C@@H]12
  Tgondii IFNg: 31.2

> CCO[C@H]1COC[C@@H]1NC(=O)Cc1nc2ccc(Cl)cc2[nH]1
  Tgondii IFNg: -2.0

> CS(=O)(=O)N1CC(=O)N2[C@@H](CO)[C@@H](c3ccc(Br)cc3)[C@@H]2C1
  Tgondii IFNg: 20.6

> C[C@@H]1CCCCO[C@@H](CN(C)S(=O)(=O)c2ccc(Cl)cc2)[C@H](C)CN([C@H](C)CO)C(=O)c2cc(NC(=O)Nc3ccc(C(F)(F)F)cc3)ccc2O1
  Tgondii IFNg: ?

> Cc1cc(C)cc(NC(=O)c2nc3c(n2C(C)C)CCN(C(=O)C2CC2)C3)c1
  Tgondii IFNg: -11.7

> Cc1cccc(-c2noc(-c3nnn(Cc4nc(-c5ccccc5)oc4C)c3C)n2)c1
  Tgondii IFNg: -40.1

> O=C(CC1CCN(Cc2ccccc2)CC1)Nc1cnc2n1CCCC2
  Tgondii IFNg: -13.8

# The list is partial (hit frequency here may not be typical).
